Source: PubChem BioAssay
E coli growth: E. coli growth inhibition, primary screen, OD600 | OD600 absorbance (concentration not given with the values) | Escherichia coli growth, 23 h; active compounds read low | 0.21% of 330,000 active;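 active means OD600 absorbance below the run mean of sample wells minus 3.6 SD, in any replicate, cut at about 0.56 in these data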;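 further: stock transfer was 300 nL into about 60 µL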
ALR H2O2 inh: inhibitors of human ALR sulfhydryl oxidase, primary screen, biochemical, H2O2 detection, HRP-luminol luminescence, single point. inhibition, % (test concentration not listed). FAD-linked sulfhydryl oxidase ALR (Homo sapiens), P55789. 3.8% of 290,000 active. purified ALR, DTT oxidation. AID 485317, 2010;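 active means mean and each replicate at 75% or more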;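 further: stock transfer was 7.5 nL into about 7.5 µL; 0% = neutral wells and 100% = wells with inactivated enzyme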
B2AR ag: beta2AR agonists driving receptor internalization, primary screen, cell-based, FAP fluorogen, flow cytometry; Am2.2-beta2AR cells; reference of the scale not given here; response, % (test concentration not listed); 0.43% of 340,000 active; AID 504454, 2011;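 active means response above a set limit, near 3 SD of response in nonfluorescent compounds, cut at about 42% in these data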;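 further: stock transfer was 100 nL into about 11 µL; a reference agonist was the positive control; negative values mostly stem from fluorescent compounds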
LANA-H2A inh: blockers of LANA interaction with H2A/H2B – biochemical, FP readout, HTS, primary screen | cell-free LANA-H2A/H2B peptide, fluorescence polarization | inhibition, % (test concentration not listed) | 0.6% of 320,000 active | AID 2629, 2010; in the data active means inhibition mostly above about 10%, no sharp cut-off; inactive means mostly below about 6.7%;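 further: stock transfer was 7.5 nL into about 10 µL; 0% = median of vehicle wells and 100% = median of positive control wells; one replicate is shown; the record names a cut of 25% in any replicate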
HNF4A DNA FP: change in binding of human HNF4A to DNA, primary screen, biochemical, fluorescence polarization, FITC-DNA | Hepatocyte nuclear factor 4-alpha (Homo sapiens), P41235 | activity change, % at 10 µM | AID 1224865, 2016 | 0.3% of 360,000 active | 1 h; in the data active means activity change above about 30%, passing the limit was not always enough;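 further: controls were the assay level and a saturating level of protein; the project sought stronger binding though the title names inhibitors; some compounds called inactive have numbers as strong as hits; positive values seem to mean higher polarization but the record does not say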
Target sequence (P41235 whole entry, looked up): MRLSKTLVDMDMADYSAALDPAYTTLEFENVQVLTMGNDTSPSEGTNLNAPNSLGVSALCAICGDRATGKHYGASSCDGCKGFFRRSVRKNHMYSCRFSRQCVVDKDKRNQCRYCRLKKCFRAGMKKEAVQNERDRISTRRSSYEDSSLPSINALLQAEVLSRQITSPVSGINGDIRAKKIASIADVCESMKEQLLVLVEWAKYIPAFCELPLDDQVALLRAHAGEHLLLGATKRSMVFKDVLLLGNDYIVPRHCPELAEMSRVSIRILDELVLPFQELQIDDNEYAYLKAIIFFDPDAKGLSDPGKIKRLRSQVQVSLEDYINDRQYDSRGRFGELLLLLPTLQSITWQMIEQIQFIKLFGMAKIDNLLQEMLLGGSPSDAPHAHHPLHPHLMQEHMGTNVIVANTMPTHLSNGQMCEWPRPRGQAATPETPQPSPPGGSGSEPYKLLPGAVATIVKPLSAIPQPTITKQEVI
UCH37 DUB inh: inhibitors of human UCH37 deubiquitinase, primary screen, biochemical, Ub-AMC cleavage, fluorescence; Ubiquitin carboxyl-terminal hydrolase isozyme L5 (Homo sapiens), Q9Y5K5; purified proteasome/UCH37; inhibition, % (test concentration not listed); 0.33% of 330,000 active; AID 588478, 2011;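 active means mean of two replicates above 20%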;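 further: 0% = compound-free wells with enzyme and 100% = wells lacking proteasome; stock transfer was 100 nL into about 20 µL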
Target sequence (Q9Y5K5 whole entry, looked up): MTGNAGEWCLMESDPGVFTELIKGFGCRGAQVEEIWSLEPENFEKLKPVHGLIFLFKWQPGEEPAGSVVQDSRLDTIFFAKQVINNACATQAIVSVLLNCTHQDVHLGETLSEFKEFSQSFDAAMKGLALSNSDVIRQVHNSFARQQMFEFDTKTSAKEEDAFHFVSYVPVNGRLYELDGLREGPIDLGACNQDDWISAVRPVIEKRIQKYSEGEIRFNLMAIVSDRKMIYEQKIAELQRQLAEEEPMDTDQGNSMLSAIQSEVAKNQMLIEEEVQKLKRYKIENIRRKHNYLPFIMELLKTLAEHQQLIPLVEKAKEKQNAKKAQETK
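Material: human UCH37 enzyme supplied as purified proteasome complex / Amount: 0.15 nM proteasome as dispensed / Buffer or medium: pH 7.4 Tris-HCl (50 mM) with ovalbumin, ATP-MgCl2, DTT / Times: preincubation 30 min, reaction 25 min, room temperature / Technique: AMC fluorescence from Ub-AMC cleavage, excitation 355 nm, emission 460 nm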
FGF22 binding: binders of human FGF22 protein, primary screen, FGF22 synaptogenesis inhibitor project, biophysical, thermal shift, single point | 1.5% of 340,000 active | AID 651658, 2012 | Fibroblast growth factor 22 (Homo sapiens), Q9HCT0 | recombinant FGF22 thermal shift, SYPRO orange fluorescence; percent of sucrose octasulfate shift, DMSO zero | calls only at 9.99 µM;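 active means melting point raised past a set limit in the mean and every replicate; three in four hits are not shown here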
Target sequence (Q9HCT0 whole entry, looked up): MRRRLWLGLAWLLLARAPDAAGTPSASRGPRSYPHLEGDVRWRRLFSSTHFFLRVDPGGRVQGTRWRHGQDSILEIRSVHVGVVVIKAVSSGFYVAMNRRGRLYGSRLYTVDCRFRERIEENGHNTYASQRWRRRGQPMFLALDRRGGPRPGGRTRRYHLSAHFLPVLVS
* marks the source's active call; other numbers are inactive results; i = inactive; · = not tested or not shown; + = active, no number.

SMILES	E coli growth	ALR H2O2 inh	B2AR ag	LANA-H2A inh	HNF4A DNA FP	UCH37 DUB inh	FGF22 binding
CCOc1ncccc1C(=O)OCC(=O)NC(=O)NC(C)C	·	0	0	0.2	-2.7	·	i
N#Cc1nc(-c2cccs2)oc1N1CCN(c2ccccc2)CC1	0.75	-1	-6	0.1	0.7	-125	·
Cc1ccc(S(=O)(=O)N2CCOCC2)cc1C(=O)NC(=S)N(Cc1ccccc1)C(C)C	0.71	-6	1	-4.7	-0.3	2.8	·
CCCc1nc(NC2CCCCC2)c(C#N)c2c1COC(C)(C)C2	0.71	0	-1	-1.8	-3.3	-84	i
CCCc1nnc(NC(=O)C2CC(=O)N(CCc3ccc(F)cc3)C2)s1 (centres undefined)	0.67	2	0	0.0	-1.7	2.6	i
O=C(NC1CC1)c1ccc(C2SCC(=O)N2Cc2ccccc2)cc1 (centres undefined)	0.68	-2	-13	-0.7	1.1	2.6	i
Cc1cc(S(=O)(=O)N(Cc2ccc(C(C)(C)C)cc2)Cc2cccs2)ccc1-n1cnnn1	0.69	·	-9	-1.1	-2.0	3.6	·
COc1ccc(NC(=O)C2CCCN(S(=O)(=O)c3c(C)[nH]c(=O)[nH]c3=O)C2)cc1Cl (centres undefined)	0.66	-6	-3	-1.3	-0.8	-0.6	i
Cc1ccc(-c2cc(C(=O)Nc3cnn(C(C)C)c3)no2)cc1	0.74	-11	10	1.7	0.0	-33	·
COc1c(C(C)C)oc2cc3oc(=O)ccc3cc12	0.66	-2	9	0.7	0.0	-51	i
O=C(CN(C(=O)CSc1nc2ccccc2o1)c1ccccc1F)NC1CCCCC1	0.75	-6	10	4.4	-0.3	3.8	i
COc1ccc(OC2C(=O)N(Cc3ccc4c(c3)OCO4)C2c2cccs2)cc1 (centres undefined)	0.73	-1	6	-4.8	1.6	3.4	i
O=c1c2ccccc2nc(-c2ccc(Cl)cc2Cl)n1CCCn1ccnc1	0.71	3	-24	2.6	0.0	5.3	·
Cc1cc(Cl)ccc1NC(=S)N(CCCN1CCOCC1)Cc1cccs1	0.67	-4	2	-1.4	1.9	-0.7	·
C[C@H](NC(=O)c1ncn(Cc2ccccc2)c1C(=O)N[C@@H](C)c1ccccc1)c1ccccc1	·	21	3	-2.7	2.1	2.2	i
CN(CC(=O)Nc1cccc(F)c1)C(=O)Cc1n[nH]c(=O)c2ccccc12	0.67	0	1	-6.7	2.9	0.9	i
S=c1[nH]nc(/C=C/c2ccccc2)o1	0.69	83*	-72	1.3	-3.9	-21	i
[N-]=[N+]=N[C@@H](CCN1CC[C@H](O)CCC1=O)c1ccccc1	·	2	1	0.5	1.1	3.2	i
Cn1c(SCC(N)=O)nnc1-c1ccc(S(=O)(=O)N2CCCC2)cc1	0.7	-4	0	-0.8	4.1	-0.3	i
CCN(C(=O)COC(=O)CNC(=O)c1ccc(Cl)cc1Cl)c1c(N)n(Cc2ccccc2)c(=O)[nH]c1=O	0.66	·	-3	-1.9	-1.7	0.0	i
O=S1(=O)CC2N=C(N(Cc3ccc(F)cc3Cl)c3ccccc3F)SC2C1 (centres undefined)	0.71	98*	-8	-1.0	-1.6	3.1	i
Cc1ccc(CC(=O)Nc2ccc(OC(F)F)c(Cl)c2)cc1C	0.7	-11	7	-0.2	1.3	3.1	i
CCc1nnc(SCC(=O)NCCC2=CCCCC2)nc1CC	0.67	-2	-14	6.4	-1.0	15	i
COCCNC(=O)CN(C(=O)CCC(=O)Nc1ccccn1)c1cc(C)ccc1C	0.66	-10	-5	-5.7	-0.9	2.1	i
CN(C)S(=O)(=O)c1cccc(NC(=O)CCc2c[nH]c3ccccc23)c1	0.69	-4	4	+	0.8	2.8	i
Cc1cccc(CSc2nnc(-c3ccco3)o2)c1	0.69	-4	-10	-3.5	-2.2	3.4	i
CCCc1cc(Nc2ccccc2OCC)n2ncnc2n1	0.68	-4	2	1.7	0.2	3.0	·
CC1CCCCC1NC(=O)c1ccc(S(=O)(=O)NCC2CCCO2)cc1 (centres undefined)	0.68	-4	0	-3.1	-0.7	1.4	i
CC1CC(C)(C)N2C(=O)C(=C(C#N)C#N)c3cccc1c32 (centres undefined)	0.66	-2	7	-3.2	1.6	7.2	i
CN1CCc2c(OCc3ccc(F)cc3)cccc2C1=O	0.72	-2	5	-0.9	-4.0	4.8	i
COC(=O)c1ccc(/C=C2/C(=O)Oc3ccccc32)cc1	0.71	·	7	-2.9	-1.0	2.7	·
COc1ccc(NC(=O)N2CCOCC2)cc1OC	0.72	-17	-5	2.5	2.9	5.2	·
CC1=NNC(=O)/C1=C\c1cn(-c2ccccc2)nc1-c1ccc(Cl)cc1	0.65	0	108*	-1.4	-2.2	3.1	i
COc1ccc(CCNC(=O)c2cccnc2)cc1OC	0.71	-8	2	1.9	0.9	4.5	·
CCOC(=O)C1=C(COC(=O)c2cc(OC)c(OC)cc2[N+](=O)[O-])NC(=O)NC1C (centres undefined)	0.67	-8	10	-0.2	-2.3	1.0	i
COc1cc(/C=N/NC(=O)C(Cc2c[nH]c3ccccc23)NC(=O)OCC(C)C)cc([N+](=O)[O-])c1O (centres undefined)	·	12	1	-5.3	-1.6	·	i
COc1ccc(N2C(=O)CC(Sc3n[nH]c(-c4ccccc4)n3)C2=O)cc1 (centres undefined)	0.67	99*	2	6.0	0.5	2.1	i
COc1ccc(N2CC(NS(=O)(=O)c3ccc4ccccc4c3)CC2=O)cc1OC (centres undefined)	0.63	-1	9	3.4	0.3	4.8	i
Cc1csc(NC(=O)c2ccc(Cl)nc2)n1	0.65	·	5	-4.3	-3.0	7.4	i
Cc1ccc(O)c(NC(=O)c2cc(-c3cccs3)on2)c1	0.67	·	13	1.9	1.8	-1.6	i
O=C(CN(c1ccccc1)S(=O)(=O)c1ccc(F)cc1)NC1CCCCCC1	0.75	-4	9	-0.9	-4.2	1.8	i
CCOC(=O)C1CCN(C(=O)c2cc3cc(F)ccc3[nH]2)CC1	0.7	-1	9	-0.9	3.0	-2.7	i
COc1ccc2c(c1)CCc1c(C(=O)Nc3ccc(OC)c(OC)c3)noc1-2	0.76	-54	6	2.1	1.3	-20	·
Cc1cccc(C(=O)C2CCN(S(=O)(=O)c3cccc(C(=O)O)c3)CC2)c1	0.68	·	0	·	-0.2	5.9	i
Cc1ccc(NC(=O)CN2CCN(C(=O)C3CCCO3)CC2)c(C)c1 (centres undefined)	0.72	-3	0	-0.3	-0.7	4.5	i
O=c1c2ccccc2nnn1Cc1ccc2ccccc2c1	0.71	3	2	-2.2	-5.8	-0.3	i
CCOC(=O)c1c(-c2cccs2)csc1NC(=O)CN1CCOCC1	0.67	1	13	-3.0	-0.7	5.6	·
O=C(N/N=C/c1ccc(OC(F)F)cc1)c1cccc(S(=O)(=O)N2CCOCC2)c1	·	-6	8	1.2	-1.1	·	i
Cc1ccccc1NC(=S)N(Cc1ccco1)C(C)c1cccs1 (centres undefined)	0.67	·	2	-4.7	-1.3	-1.0	i
Cc1cccc(NC(=S)Nc2ccc(Cl)c(Cl)c2)c1	0.49*	-50	21	-1.2	-2.4	2.9	·
Clc1ccccc1CSc1nnc(-c2ccncc2)o1	0.67	1	3	1.8	-5.5	3.6	·
CCOc1ccc(N(CC(=O)NC(C)(C)C)C(=O)CCC(=O)Nc2nccs2)cc1	0.66	·	9	-0.6	-0.3	4.9	i
CCN(C(=O)Cn1nc(C(=O)O)c2ccccc2c1=O)C1CCCCC1	0.63	-14	-4	-2.2	1.1	5.8	i
COc1cc(NC(=O)CSc2nc(C)cs2)cc(OC)c1	0.57	21	21	-1.1	2.7	-0.5	i
COc1ccc(C2C(C(=O)c3cccs3)=C(O)C(=O)N2c2cccc(C)n2)cc1 (centres undefined)	0.7	29	10	3.5	4.0	10	i
O=C(NCCC1=CCCCC1)c1ccc(F)cc1	0.62	·	0	·	-2.2	2.9	·
O=C(NC1CCCCC1)C(c1ccccc1)N(Cc1ccco1)C(=O)Cn1cnc2ccccc21 (centres undefined)	0.7	·	2	·	-0.8	3.3	·
CC(=O)Nc1ccc(S(=O)(=O)N2CCC(C(=O)NCCc3ccc(Cl)cc3)CC2)cc1	0.69	-13	-2	5.5	4.1	2.6	i
O=C1c2ccccc2C(=O)N1CN(C(=O)COc1ccccc1)c1ccc(F)cc1	0.7	-3	-35	2.2	-0.3	2.2	i
O=C(Nc1nnc(C(F)(F)F)s1)c1c(F)cccc1F	0.62	6	-11	8.4	0.9	1.2	i
Following part:
SMILES	E coli growth	ALR H2O2 inh	B2AR ag	LANA-H2A inh	HNF4A DNA FP	UCH37 DUB inh	FGF22 binding
O=C(Nc1ccc2nc3n(c(=O)c2c1)CCCCC3)C(=O)N1CCN(c2ccc(F)cc2)CC1	0.65	11	1	2.1	3.7	5.5	i
CCCNC(=S)Nc1ccc(Cl)cc1Cl	0.67	·	-5	1.8	-1.2	5.8	i
O=C(NCCC1=CCCCC1)C1CCN(S(=O)(=O)c2ccccc2C(F)(F)F)CC1	0.73	·	4	-2.0	-1.9	0.5	i
CCN(CC)S(=O)(=O)c1ccc(/C=C/C(=O)OCC(=O)NC(=O)C2COc3ccccc3O2)cc1 (centres undefined)	0.73	-14	1	-3.0	1.7	2.7	i
CCC1CCCCN1C(=O)COC(=O)COc1ccc(Br)cc1 (centres undefined)	0.69	·	0	-5.8	2.4	0.6	i
Cc1cc(C)nc(SCC(=O)NNC(=O)c2ccccc2C)n1	0.69	0	-5	-2.7	-1.4	3.5	i
COc1ccccc1-c1cc(C(F)(F)F)nc(S(C)(=O)=O)n1	0.67	91*	58*	0.5	0.2	-12	·
Cc1ccc(NC(=O)c2ccc(=O)[nH]n2)cc1C	0.68	-13	-14	-0.2	0.6	1.0	i
O=C(COC(=O)c1ccccn1)NCc1ccccc1Cl	0.7	-4	1	-2.1	-0.1	-0.2	i
COc1ccccc1NC=C1C(=O)OC2(CCCCC2)OC1=O	0.73	0	-15	-7.9	1.8	4.7	·
COc1ccccc1Nc1nc(-c2cccnc2)cs1	0.6	53	-4	-16	-2.4	2.9	i
CC(C)(C)C1CCC(=NNC(=O)C(=O)NCc2ccco2)CC1 (centres undefined)	0.71	69	7	2.1	0.1	-0.1	i
O=C(O)c1cc(-c2cccnc2)nc2ccc(Br)cc12	0.71	2	-56	1.5	0.5	4.6	i
COC(=O)c1ccc(Oc2ccc(S(=O)(=O)N3CCCCC3)cc2N)cc1	0.68	-6	0	-4.0	5.6	4.2	i
Cn1cnc2c(=O)sc3ccccc3c21	0.65	2	-5	-0.4	-1.6	3.9	i

Laid out differently: results already given.
smiles | E coli growth | ALR H2O2 inh | B2AR ag | LANA-H2A inh | HNF4A DNA FP | UCH37 DUB inh | FGF22 binding
O=C(NCCC1=CCCCC1)C1CCN(S(=O)(=O)c2ccccc2C(F)(F)F)CC1 | 0.73 | · | 4 | -2.0 | -1.9 | 0.5 | i
CCN(CC)S(=O)(=O)c1ccc(/C=C/C(=O)OCC(=O)NC(=O)C2COc3ccccc3O2)cc1 (centres undefined) | 0.73 | -14 | 1 | -3.0 | 1.7 | 2.7 | i
CCC1CCCCN1C(=O)COC(=O)COc1ccc(Br)cc1 (centres undefined) | 0.69 | · | 0 | -5.8 | 2.4 | 0.6 | i
Cc1cc(C)nc(SCC(=O)NNC(=O)c2ccccc2C)n1 | 0.69 | 0 | -5 | -2.7 | -1.4 | 3.5 | i

These rows are one share of the data; count on the stated rates, not on these rows.
